Compound activity as filed in PubChem BioAssay.
D2 ag: human D2 receptor agonism in beta-arrestin assay; P14416; DiscoveRx PathHunter D2 beta-arrestin, luminescence, 90 min; 100% = 57 uM dopamine signal; activation, % (test concentration not listed); 360,000 compounds, 0.084% hits; in the data active = activation above about 40%; inconclusive = about 15% to 40%; inactive = below about 15%; further: compound concentration not given in the record; the text of the record calls up to 30% inactive
Target sequence (P14416 whole entry, looked up): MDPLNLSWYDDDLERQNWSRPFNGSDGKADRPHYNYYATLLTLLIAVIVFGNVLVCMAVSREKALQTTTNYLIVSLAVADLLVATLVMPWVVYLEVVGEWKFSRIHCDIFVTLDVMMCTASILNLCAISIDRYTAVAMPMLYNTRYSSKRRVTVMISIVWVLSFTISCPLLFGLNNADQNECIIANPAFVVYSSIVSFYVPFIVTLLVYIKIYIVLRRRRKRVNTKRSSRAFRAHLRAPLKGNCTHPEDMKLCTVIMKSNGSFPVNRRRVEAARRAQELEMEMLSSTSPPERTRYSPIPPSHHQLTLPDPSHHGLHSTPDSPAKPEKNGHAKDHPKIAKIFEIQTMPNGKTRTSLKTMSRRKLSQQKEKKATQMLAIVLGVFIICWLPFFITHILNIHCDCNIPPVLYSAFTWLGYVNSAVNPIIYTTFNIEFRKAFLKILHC
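Agonist mode: compounds alone added to overnight-plated D2 PathHunter cells for 90 min at 37 C, with 57 uM final dopamine (EC100) defining full response. Beta-arrestin recruitment detected by chemiluminescent reagent, read after 1 h at ambient temperature.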
gsp antag: antagonists of gsp mutant (McCune-Albright syndrome); gsp-mutant cells, cAMP HTRF, 30 min; control for the full effect not named in the record; 340,000 compounds, 0.4% hits; AID 624288; Potency, µM (series often up to 76.9 µM), without a hit: at the top dose activity change, negative = inhibition, usual class: inhibitors; active = falling curve of any shape with a large fitted effect; inconclusive = falling curve, mostly with a smaller effect; inactive = flat or rising curve; cell line not stated here;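 further: intracellular cAMP measured with PDE inhibitor Ro 20-1724 present during compound exposure; potency means the concentration at half of the fitted maximal effect; on the % scale 0 is the no-effect control and ±100 the full control effect; nearly all actives have a fitted effect of over 65% in size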
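Cells in G418 medium, seeded 16-24 h, 37C; buffer exchange to DPBS + 1 mM CaCl2, 0.5 mM MgCl2, 0.05% BSA; cpds in DMSO + […] (300 uM stock), 30 min 37C; HTRF cAMP detection.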
CtBP-E1A inh: inhibitors of CtBP/E1A interaction | AlphaScreen GST-E1A/His-CtBP binding, 1536-well; active compounds read low; control for the full effect not named in the record | activity change, % (concentration not given with the values) | 340,000 compounds, 0.49% hits | AID 651724; in the data active means activity change below about -65%; inconclusive means about -30% to -65%; inactive means above about -30%; further: on the % scale 0 is the no-effect control and ±100 the full control effect
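Steps: dispense buffer (Tris pH 8.0, NaCl 300 mM, TCEP 1 mM, BSA, Tween 20); add 5X protein mix (GST-E1A, His-CtBP, 125 nM each); pin 23 nL compound; 2 h at 37 °C, dark; add 5X beads (50 ug/mL); 1 h; read.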
gsp agonist: activates gsp, the McCune-Albright syndrome mutation; Potency, µM (series often up to 76.9 µM), for the others: top-dose activation (cAMP increase), most hits filed as activators; 340,000 compounds, 0.13% hits; gsp mutant cells, cAMP HTRF, 30 min; control for the full effect not named in the record; active = well fitted activation curve with a large enough effect; inconclusive = small, poorly fitted or top-dose-only effect, or another doubt; inactive = no such curve, though single readings can be large or run the other way; cell line not stated here;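 further: phosphodiesterase inhibitor Ro 20-1724 added with compounds to block cAMP breakdown; potency means the concentration at half of the fitted maximal effect; nearly all actives have a fitted effect of over 60% in size; about a fifth of the inactives were tested at one dose only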
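Cells in DMEM/10% FBS with G418 were pretreated with compounds in DMSO plus […] (300 uM stock) for 30 min at 37C. cAMP was measured by HTRF (cAMP-d2 plus anti-cAMP antibody-K) after 30 min at room temperature.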
Six1-Eya2 inh: blocks human Six1 binding to Eya2; Q15475+O00167; AlphaScreen GST-Six1/His-Eya2 binding, biochemical; active compounds read low; control for the full effect not named in the record; activity change, % (test concentration not listed); 360,000 compounds, 0.56% hits; AID 651725; in the data active = activity change below about -65%; inconclusive = about -30% to -65%; inactive = above about -30%; further: on the % scale 0 is the no-effect control and ±100 the full control effect
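AlphaScreen luminescence read after one hour at 37 °C in darkness. Pin-transferred compounds met GST-Six1 and His-Eya2 protein (5X stock 250 nM/500 nM) plus glutathione donor and Ni-chelate acceptor beads (5X, 50 ug/mL).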
D2 PAM: positive allosteric modulators of human D2 dopamine receptor; P14416; DiscoveRx D2 beta-arrestin cells, luminescence, 90 min; 100% = 57 uM dopamine signal; potentiation, % (test concentration not listed); 360,000 compounds, 0.23% hits; AID 624464; active = potentiation of 50% or more; inconclusive = 30% to 50%; inactive = 30% or less;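 further: compound concentration not given in the record; tested on top of an EC20 dose of dopamine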
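PathHunter D2 cells, attached overnight at 37 deg C, received compound in DMSO plus dopamine at EC20 (50 nM final) for 90 min at 37 deg C. Beta-arrestin recruitment was read as luminescence after 1 h with detection reagent at ambient temperature.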
The depositor's hits bear a star; ? = inconclusive; nt = not tested or not shown; [ ] = another dose, or the depositor's remark. Not a hit list (roughly 1.4% active in at least one column).

SMILES	D2 ag	gsp antag	CtBP-E1A inh	gsp agonist	Six1-Eya2 inh	D2 PAM
CCC1(CC)C(=O)C2=C3C1[C@H](C(=O)OC)C=C(C(=O)OC)C[C@H]3n1c(=O)n(C)c(=O)n1[C@H]2C (stereo partly drawn)	-1.8	9%	7	nt	2	-3
O=C(CSc1nccn1-c1ccccc1)c1ccc(Br)cc1	-3.7	-5%	-18	10%	-22	-11
C[C@@]12C(=O)N(Cc3ccccc3)CC(=O)N1[C@H](/C=C/c1ccccc1)[C@@H]1C(=O)N(c3ccccc3)C(=O)[C@@H]12	-4.2	-2%	2	0%	-1	-15
CCn1cc(/C=C/C(=O)Nc2ccn(Cc3c(F)c(F)c(F)c(F)c3F)n2)cn1	-0.1	10%	-19	-8%	-5	-6
Cc1ccc(C(C)C)c(OCC(=O)Nc2cccc(S(=O)(=O)NC3=NCCCCC3)c2)c1	-2.1	-26%	-2	27%	0	8
CC(C)(C)c1ccccc1NC(=O)c1ccco1	0.0	7%	7	-14%	4	-6
COc1ccc(Nc2nnc(SCc3cc(=O)n4ccsc4n3)s2)cc1	0.9	-5%	-27	-1%	-21	-1
CCOC(=O)C1=C(C)NC(C)=C(C(=O)OCC)C1C(=O)OCC(=O)N(C)C	-1.9	2%	8	4%[15.4 µM]	-1	-2
O=C(Nc1nc2c(F)cc(F)cc2s1)C1CC(=O)N(Cc2ccco2)C1 (stereo not drawn)	-2.9	-20%	-7	29%	-12	-1
COc1cc2c(cc1OC)/C(=C/C(=O)c1ccc(F)cc1)NCC2	7.9	-11%	-20	8%[15.4 µM]	?	-5
C[C@@H]1CN([C@@H](C)CO)C(=O)CCCn2nncc2CO[C@H]1CN(C)S(=O)(=O)c1ccc(-n2cccn2)cc1	0.0	nt	-5	6%	-12	nt
COc1ccc(C(=O)N/C(=C\c2ccccc2)C(=O)NC(CCSC)C(=O)O)cc1 (stereo not drawn)	-3.2	2%	1	?	9	-1
CN(CCN(C)C(=O)c1[nH]cnc1C(=O)Nc1ccccc1)C(=O)c1[nH]cnc1C(=O)Nc1ccccc1	-1.5	-10%	3	-1%	-3	-8
CC(NCc1cccc(S(=O)(=O)N(C)C)c1)c1ccc(F)cc1 (stereo not drawn)	-6.4	10%	-4	5%	1	-13
CC1CN=C(N(C(=O)Nc2ccccc2)C(C)C)S1 (stereo not drawn)	-2.6	17%	-5	0%	?	-2
CCc1ccccc1Nc1nc(N)nc(CSc2nnc3ccccn23)n1	-0.4	3%	0	35%	17	2
NS(=O)(=O)c1ccc(CCNC(=O)CSc2nc3ccsc3c(=O)n2C2CC2)cc1	-2.7	-9%	2	-15%	0	-3
O=C(CSc1nc2cc(S(=O)(=O)N3CCOCC3)ccc2o1)NC1CCCc2ccccc21 (stereo not drawn)	-1.6	-3%	2	5%	-1	6
CC(C)N1CCC(NC(=O)Nc2ccc3c(c2)OCO3)CC1	3.1	7%	-7	-3%[15.4 µM]	-1	0
CCN(CC(=O)Nc1c(F)cccc1F)C(=O)/C=C/c1ccc(S(=O)(=O)N2CCCCCC2)cc1	2.4	0%	-8	-4%	-1	14
O=C1[C@H]2[C@@H](c3ccc(F)cc3)N3C(=O)N(c4cccc(F)c4)C(=O)[C@@]3(Cc3ccc(Cl)cc3)[C@H]2C(=O)N1C1CCCCC1	-2.6	-10%	1	nt	-6	-12
COc1ccc(OCCCN2CCCC(C)C2)cc1 (stereo not drawn)	-3.7	16%	-11	18%	-2	-12
COc1cccc(OCc2cc(C(=O)N(Cc3ccccc3)CC3CC3)no2)c1	-2.5	-19%	59	?	23	-10
O=C(NNS(=O)(=O)c1ccccc1)c1ccc(F)cc1	-1.3	9%	6	5%[15.4 µM]	-2	-2
Cc1ccccc1N(CC(=O)NC1CCCCC1)C(=O)CCC(=O)Nc1nccs1	1.6	-1%	-1	-17%	3	-7
New compounds follow
SMILES	D2 ag	gsp antag	CtBP-E1A inh	gsp agonist	Six1-Eya2 inh	D2 PAM
O=C(c1ccccc1F)N1CCN(S(=O)(=O)c2ccc(S(=O)(=O)N3CCCCCC3)cc2)CC1	-1.3	3%	-6	2%[15.4 µM]	6	0
CS(=O)(=O)c1ccc(Cl)c(NC(=O)COC(=O)CCc2c[nH]c3ccccc23)c1	-4.4	-7%	0	27%	-10	-38
Cc1onc(-c2ccccc2)c1-c1n[nH]c(=S)n1-c1ccccc1	3.0	3%	5	?	4	-19
Cc1ccc(-c2noc(CN(C(=O)Cc3ccccc3)C(C)C)n2)cc1	-2.4	2%	9	-17%	8	-4
CC(C)Oc1ccccc1/C=N/NC(=O)c1ccc(F)cc1	0.6	-13%	-13	10%	-4	-27
Cc1cc(C(=O)CSc2nnc(N)s2)c(C)n1Cc1ccco1	4.2	nt	1	-3%[15.4 µM]	8	14
COc1cccc(-c2cc3nc(-c4ccccc4)cc(N4CCC5(CC4)OCCO5)n3n2)c1	-0.3	4%	12	27%	44	-12
COc1cc(OC)cc(C(=O)N2CCN(c3ccc(N4CCOCC4)nn3)CC2)c1	-0.1	1%	-19	-27%[15.4 µM]	-13	-18
Cc1ccc(N2CC(C(=O)N3CCC(C(=O)Nc4cccc(Br)c4)CC3)CC2=O)cc1 (stereo not drawn)	-2.4	-9%	2	-47%[inhibitor]	-9	-15
CC1CCN(C(=O)CCNS(=O)(=O)c2ccccc2)CC1	0.8	16%	-4	-5%	4	-6
O=C(NCCCn1ccnc1)/C(=C\c1ccco1)NC(=O)c1ccco1	-3.5	12%	-8	-26%	25	-3
CCOC(=O)Nc1ccc(C(=O)NCC2CCCO2)cc1 (stereo not drawn)	-0.8	2%	-2	6%	6	-2
COc1ccc(NC(=O)CC2Oc3ccccc3NC2=O)c(OC)c1 (stereo not drawn)	5.2	4%	10	12%	-1	-6
O=C1CCCC/C=C\C[C@H](CC(=O)N(CCO)Cc2ccccc2)C(=O)NC[C@H](c2ccccc2)O1	-7.8	-4%	-6	17%	5	-9
NS(=O)(=O)c1ccc(N2N=C(c3ccccc3)CC2c2cccc(F)c2)cc1 (stereo not drawn)	1.4	3%	37	5%	26	10
CCOc1ccc(-n2c(Cc3cc(=O)[nH]c(=O)[nH]3)nnc2SCC(=O)NC2CCCC2)cc1	-1.5	12%	-10	-61%[inhibitor]	-11	-3
CC(=O)Nc1ccc(N(CC(=O)NC2CCCC2)C(=O)CCC(=O)Nc2cc(C)on2)cc1	-2.8	11%	5	-21%	0	-2
CCC(=O)c1c[nH]c(C(=O)NCCc2ccccn2)c1	-1.3	10%	5	-2%	1	17
C=CCN1C=C2C(=O)C(C)(OC(=O)CC)C(=O)C=C2C=C1CCCC (stereo not drawn)	2.6	5%	4	20%	2	-3
COc1cc(CCC(=O)OCC(=O)Nc2ccc(C)cc2Br)cc(OC)c1OC	-1.8	-5%	6	-35%[inhibitor]	-6	-3
COC(=O)Nc1ccc(OCc2ccccc2)cc1	-2.4	4%	-8	-23%	0	-3
CCOc1ccc(S(=O)(=O)NCc2ccco2)c2ccccc12	-2.3	-7%	-4	-10%	-9	-1
N#CC1=C(N)NC(SCC(=O)c2ccc(Cl)cc2)=C(C#N)C12CCCC2	2.7	?	0	?	-11	-18
C=CCC1NS(=O)(=O)OC(CCCC)C1O (stereo not drawn)	-4.1	5%	5	-3%	-2	-12
O=C(O)C1CC(Br)C(Br)CC1C(=O)O (stereo not drawn)	-0.3	nt	1	2%	3	-6

Some of these compounds in order of molecular weight, smallest number first.
SMILES	D2 ag	gsp antag	CtBP-E1A inh	gsp agonist	Six1-Eya2 inh	D2 PAM
Cc1cc(C(=O)CSc2nnc(N)s2)c(C)n1Cc1ccco1	4.2	nt	1	-3%[15.4 µM]	8	14
N#CC1=C(N)NC(SCC(=O)c2ccc(Cl)cc2)=C(C#N)C12CCCC2	2.7	?	0	?	-11	-18
CCOc1ccc(-n2c(Cc3cc(=O)[nH]c(=O)[nH]3)nnc2SCC(=O)NC2CCCC2)cc1	-1.5	12%	-10	-61%[inhibitor]	-11	-3
O=C1CCCC/C=C\C[C@H](CC(=O)N(CCO)Cc2ccccc2)C(=O)NC[C@H](c2ccccc2)O1	-7.8	-4%	-6	17%	5	-9

Next compounds
SMILES	D2 ag	gsp antag	CtBP-E1A inh	gsp agonist	Six1-Eya2 inh	D2 PAM
O=C(OCCN1CCCC1)C1(c2ccccc2)CCCC1	-3.5	6%	0	-45%[inhibitor]	12	-42
Cc1occc1C(=O)N/N=C/C=C\c1ccccc1[N+](=O)[O-]	-1.7	-22%	-1	0%[15.4 µM]	-4	-13
O=C1CC(NNC(=O)c2cccc(F)c2)C(=O)N1 (stereo not drawn)	-3.4	6%	nt	14%	0	-18
Cc1ccc(S(=O)(=O)NCc2ccc(C(=O)N3CCCC3)cc2)cc1	0.9	5%	19	-4%[15.4 µM]	-12	6
CNC(=O)c1cc2cc(Cc3ccccc3Cl)ccc2oc1=O	-1.8	4%	0	7%[15.4 µM]	-10	-7
COc1ccc([C@H]2C[C@@H](O)[C@H](n3cc(C4CC4)nn3)CN2CC2CCCCC2)cc1	-11	nt	-7	?	-4	-4
CCCCn1c(SCC(=O)N2CCCc3ccccc32)nc2c1c(=O)n(C)c(=O)n2C	-1.6	-8%	10	9%	5	-12
O=C(Nc1ccc(S(=O)(=O)Nc2nccs2)cc1)c1cc(-c2ccncc2)nc2ccccc12	4.7	1%	-20	?	-19	-10
COc1ccc(Br)c(C(=O)Nn2c(C)nc3ccccc3c2=O)c1	-1.3	-3%	7	-53%[inhibitor]	-2	5
NC(=O)C1CCN(C(=O)c2ccc(Oc3ccccc3)cc2)CC1	-1.7	8%	0	32%	-1	-5
COc1cccc(-c2csc(NC(C)=O)n2)c1	-0.5	1%	-7	0%	-2	-1
O=[N+]([O-])c1cccc(/C=N/N=C\c2ccccc2)c1	-1.7	5%	-5	-46%[inhibitor]	-2	-10
O=C(Nc1cccc2ccccc12)c1ccc([N+](=O)[O-])cc1	-0.2	2%	nt	-16%	-3	8
COc1ccccc1-n1cnc2cc(C(=O)NC3CCCC3)ccc21	0.8	?	-10	6%	-7	-11
CCOc1ccc(NC(=O)C(C)Oc2ccccc2C(=O)Nc2cccc(Cl)c2Cl)cc1 (stereo not drawn)	-1.2	23%	6	7%	3	19
CC(C)(C)NC(=O)C(c1ccco1)N(C(=O)c1ccc(CN2CCOCC2)o1)c1ccccc1 (stereo not drawn)	-2.1	20%	-23	0%	-20	-9
CCCCCn1nnc2c(=O)oc3ccccc3c21	0.1	-2%	nt	-14%	12	-9
COc1ccc2cnnc(SCC(=O)Nc3ccc(C(=O)O)cc3)c2c1OC	-1.1	9%	-19	4%	?	-1
O=S(=O)(NC(=S)c1ccccc1)c1ccc(F)cc1	5.3	0%	1	-94%[inhibitor]	6	-4
CC(=O)COc1ccc2oc(=O)cc(-c3cc4ccccc4o3)c2c1	-3.1	-14%	-18	27%	0	1
Nc1ncnc2c1CCC2	-1.0	-7%	8	-16%	10	1
CCC(C)NC(=O)C1CCC(=O)N1CCc1ccccc1 (stereo not drawn)	-3.2	15%	7	1%[15.4 µM]	-3	-7
